# Compound activity deposited in PubChem by National Center for Advancing Translational Sciences (NCATS).
# gsp antag – qHTS for Antagonists of gsp, the Etiologic Mutation Responsible for Fibrous Dysplasia/McCune-Albright Syndrome: qHTS. gsp-mutant cells, cAMP HTRF, 30 min; control for the full effect not named in the record. Potency, µM (highest dose often 76.9 µM), inactives show top-dose activity change, negative = inhibition, usual class: inhibitors. actives 0.4% (n = 340,000). AID 624288, 2012; active = falling curve of any shape with a large fitted effect; inconclusive = falling curve, mostly with a smaller effect; inactive = flat or rising curve; cell line not stated here;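 note: intracellular cAMP measured with PDE inhibitor Ro 20-1724 present during compound exposure; potency is the fitted concentration of half-maximal effect; % is set by controls: 0 for no effect and ±100 for the full control effect; nearly all actives have a fitted effect of over 65% in size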
#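 HTRF cAMP measurement after 30 min RT detection following 30 min, 37C compound treatment alongside […] (added as 300 uM solution) in G418-selected cells seeded at 2000/well and grown 16–24 h.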
# ClpP mod – qHTS Assay for Activators of ClpP. purified B. subtilis ClpP, FRET peptide cleavage, 20 min. Potency, µM (top dose mostly 57.5 µM), without a hit: at the highest dose activity change, negative = active. actives 1.9% (n = 340,000). AID 651965, 2013; active = well fitted falling curve with a large enough effect; inconclusive = small, poorly fitted or top-dose-only effect; inactive = no such curve, though single readings can be large or run the other way; note: potency is the fitted concentration of half-maximal effect; the source files actives as falling curves though it sought activators and does not explain the sign; nearly all actives have a fitted effect of over 65% in size; many hits overshoot -100%
# Target sequence (P80244 whole entry, looked up): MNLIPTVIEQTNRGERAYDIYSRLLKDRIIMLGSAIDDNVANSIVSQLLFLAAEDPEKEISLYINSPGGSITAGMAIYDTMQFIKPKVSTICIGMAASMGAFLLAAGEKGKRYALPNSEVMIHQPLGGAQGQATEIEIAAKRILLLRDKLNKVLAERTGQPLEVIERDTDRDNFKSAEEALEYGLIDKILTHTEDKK
#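 Buffer: 100 mM Tris/HCl pH8, 100 mM KCl, 0.05% low protease BSA, 2.5% glycerol, 0.01% Tween-20. ClpP 10 microg/mL final; 20 min RT; delta FRET normalized to ADEP and DMSO controls.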
# gsp ag – qHTS for Agonist of gsp, the Etiologic Mutation Responsible for Fibrous Dysplasia/McCune-Albright Syndrome: qHTS | gsp mutant cells, cAMP HTRF, 30 min; control for the full effect not named in the record | Potency, µM (doses to about 76.9 µM), for the others: top-dose activation (cAMP increase), hits mostly activators | actives 0.13% (n = 340,000) | AID 624287, 2012; active = well fitted activation curve with a large enough effect; inconclusive = small, poorly fitted or top-dose-only effect, or another doubt; inactive = no such curve, though single readings can be large or run the other way; cell line not stated here;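 note: phosphodiesterase inhibitor Ro 20-1724 added with compounds to block cAMP breakdown; potency is the fitted concentration of half-maximal effect; nearly all actives have a fitted effect of over 60% in size; about a fifth of the inactives were tested at one dose only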
#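 Cells stably selected in G418 were plated at 2000/well, grown 16-24 hr, then given compounds in DMSO with the PDE inhibitor […] (300 uM solution added) for 30 min at 37C; cAMP was read by HTRF.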
# Menin-MLL FL inh – qHTS Assay for Inhibitors Targeting the Menin-MLL Interaction in MLL Related Leukemias: Competition With Fluorescein Labeled MLL-derived Peptide; Fluorescence polarization, fluorescein-MLL peptide displacement from menin; FP activity change, % at 61.4 µM; 290,000 tested, under 10 active; inconclusive = falling polarisation curve, or a change in total fluorescence; inactive = total fluorescence flat and polarisation flat or rising; no compound was filed as active; the % refers to the polarisation; negative = inhibition;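 note: % of control where 0% means no effect; inhibitors lower the polarisation; unlabelled MLL peptide was the positive control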
# TRPML1 agonist – qHTS for Agonists of the Human Mucolipin Transient Receptor Potential 1 (TRPML1). Mucolipin-1 (Homo sapiens), Q9GZU1. TRPML1-expressing cells, Ca2+ dye fluorescence, FDSS; host cell line not named in the record; reference of the full effect not given here. activation, % (test concentration not listed). actives 0.12% (n = 410,000). AID 624414, 2012; in the data active = activation above about 50%; inconclusive = about 30% to 50%; inactive = below about 30%; note: 0% is about no effect; the text of the record puts the active cut at 80%
# Target sequence (Q9GZU1 whole entry, looked up): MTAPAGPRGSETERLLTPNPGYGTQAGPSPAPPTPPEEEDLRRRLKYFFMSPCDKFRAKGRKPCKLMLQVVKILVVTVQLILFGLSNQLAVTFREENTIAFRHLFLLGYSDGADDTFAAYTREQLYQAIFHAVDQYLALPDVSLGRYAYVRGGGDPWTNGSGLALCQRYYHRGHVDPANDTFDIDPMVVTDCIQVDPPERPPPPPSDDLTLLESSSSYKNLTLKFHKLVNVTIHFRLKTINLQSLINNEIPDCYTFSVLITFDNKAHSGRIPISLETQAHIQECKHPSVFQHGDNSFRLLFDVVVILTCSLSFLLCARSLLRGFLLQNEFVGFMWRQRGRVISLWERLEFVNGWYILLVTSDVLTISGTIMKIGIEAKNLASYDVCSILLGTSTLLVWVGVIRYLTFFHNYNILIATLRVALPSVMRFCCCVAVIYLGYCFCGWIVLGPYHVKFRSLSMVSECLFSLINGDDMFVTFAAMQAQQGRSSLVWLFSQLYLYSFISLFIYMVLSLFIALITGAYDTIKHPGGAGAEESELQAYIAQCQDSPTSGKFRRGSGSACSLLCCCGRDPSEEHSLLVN
#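 Cells: TRPML1-DL, 1X Tet inducer, ~16 h at 37 degrees C/5% CO2. Dye: ABD Ca8 no-wash + quencher, 45-90 min RT. Read: 10 s baseline, compound add, 110 s agonist phase; 54-4 EC80 (4uM final), 110 s antagonist phase.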
# TRPML1 inh – qHTS for Inhibitors of the Human Mucolipin Transient Receptor Potential 1 (TRPML1); Mucolipin-1 (Homo sapiens), Q9GZU1; TRPML1-inducible cells, Ca2+ dye fluorescence, FDSS; hits give low values; inhibition of EC80 agonist-evoked calcium signal; activity change, negative = inhibition, % (concentration not given with the values); actives 0.02% (n = 390,000); in the data active means activity change below about -50%; inconclusive means about -30% to -50%; inactive means above about -30%;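 note: stimulus is agonist 54-4 at its EC80 concentration; % is set by controls: 0 for no effect and ±100 for the full control effect; compound concentration not given in the record; the text of the record puts the active cut at -80%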
#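 Calcium fluorescence in TRPML1-DL cells induced overnight with Tet: a 110 s read after compound pin addition, then a 110 s antagonist read after challenge with 54-4 at 4 uM final (EC80).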
# Active calls of the source: *; u = inconclusive; x = no result given; & = joins results of further samples; [ ] = another dose, or the depositor's remark. The order is random. About 2.1% of those tested had a hit in this group.
# Each structure is followed by: gsp antag	ClpP mod	gsp ag	Menin-MLL FL inh	TRPML1 agonist	TRPML1 inh
> CC1=C(/C=C/C(C)=C/C=C/C(C)=C/C(=O)Nc2ccc(O)cc2)C(C)(C)CCC1
    2%&-13%	-5.3%&-1.1%	-33%[inhibitor]	1.4&8.8&-1.4	-0.2&-0.3	-20&14
> Cc1cccc(Cc2nnc(NC(=O)c3cccc(S(=O)(=O)N4CCOCC4)c3)s2)c1
    5%	4.4%	9%	-0.3	-0.4	0
> CCOC(=O)COc1ccc(F)cc1C(=O)c1ccn2nc(-c3ccc(C)cc3)cc2n1
    x	-0.4%	x	x	-0.2	6
> O=C(N/N=C\c1ccc(Sc2ccccn2)o1)c1cccc(F)c1
    -6%	-3.3%	18%	1.8	-0.2	5
> Cc1ccc(N(Cc2cccs2)C(=O)c2ccccc2[N+](=O)[O-])cc1
    x	-2.3%	x	x	2.5	28
> COc1nonc1NCn1nc(C)cc1C
    8%	-0.2%	7%	-0.2	0.0	-3
> COc1ccc(-c2coc3c(C(=O)NCC4CC4)cccc23)c(C)c1
    x	-8.3%	x	x	2.2	27
> COc1ccc(N2CCN(C(=O)C3CCN(S(=O)(=O)c4ccc5c(c4)oc(=O)n5C)CC3)CC2)cc1
    4%	-1.7%	-8%	-2.9	0.7	13
> CCN(CC(=O)Nc1c(F)cccc1F)C(=O)c1cccc(S(=O)(=O)N(C)c2ccccc2)c1
    -8%	x	2%[15.4 µM]	x	1.1	-4
> CCOC(=O)c1oc2nc(C(C)C)c3c(c2c1N)CCC3
    -5%	157%	8%	0.6	1.4	12
> CCOc1ccc(NC(=O)NNC(=O)c2ccc3ccccc3c2O)cc1
    -2%	4.0%	3%	3.2	-0.6	22
> CS(=O)(=O)N1CCCC(C(=O)NCc2ccccn2)C1 (stereo unspecified)
    1%	0.5%	4%	-0.7	0.0	-1
> CN=c1sc2ccccc2n1CC(O)c1ccccc1 (stereo unspecified)
    x	x	7%[15.4 µM]	-0.9	-0.1	7
> COc1cc(CO)ccc1OCC(=O)Nc1ccc(Br)cc1
    2%	0.6%	-22%	13	0.6	8
> Cc1ccc(C(=O)CSc2n[nH]c(C)n2)cc1
    5%	2.9%	-22%	0.5	0.9	-9
> CCCCn1c(N)c(N(CCC(C)C)C(=O)C2CCN(C(=O)c3ccccc3C)CC2)c(=O)[nH]c1=O
    -12%	1.5%	-57%[inhibitor]	x	-0.4	-10
> Cc1cccc(C(=O)Nc2ccc(O)c3c(=O)cc(-c4ccccc4Cl)oc23)c1
    -12%	-0.2%	-10%	-0.1&-0.3	2.0&0.8	0&3
> C/C(CC(=O)Nc1cccc(C(F)(F)F)c1)=N\NC(=O)C(=O)NCC(C)C
    -8%	x	-4%[15.4 µM]	-0.7	-1.0	-9
> O=C(Nc1ccncc1)c1ccc(S(=O)(=O)Nc2ccccc2)cc1
    -5%	x	22%	5.6	0.6	6
> NNC(=S)Nc1cccc(Cl)c1
    8%	0.2%	1%	2.3	-0.2	-7
> O=C1OC=NC1=Cc1ccccc1
    7%	-0.9%	-13%	x	-0.1	-3
> CC(=O)Nc1nc(-c2ccccc2)c(-c2ccccc2)o1
    -18%	x	-12%[15.4 µM]	-3.3	1.1	30
> O=C(Nc1cccc(Cl)c1N1CCCC1)c1ccc([N+](=O)[O-])o1
    2%	-3.8%	4%[15.4 µM]	-2.0	-0.4	-2
> COc1ccc(CNC(=O)c2sc3nc4c(c(C(F)(F)F)c3c2N)CCC4)cc1OC
    12%	0.4%	4%	x	1.4	5
> COc1ccc(CCNC(=O)CSc2nc3c(c(=O)n(C)c(=O)n3C)n2C(C)C)cc1OC
    -3%	-0.7%	21%	0.7	1.0	19
> Cc1ccc(S(=O)(=O)NN=C2CCc3ccccc32)cc1
    x	0.0%	-146%[inhibitor]	x	0.9	1
> c1ccc2c(c1)CC(N1CCCCC1)c1ccccc1N2 (stereo unspecified)
    -20%	-0.9%	1%	-0.2	-0.2	0
> CCOc1ccccc1C(=O)NC(CO)C(=O)O (stereo unspecified)
    7%	-3.4%	-43%[inhibitor]	-1.8	-1.0	-6
> COc1ccccc1NC(=O)COC(=O)[C@@H]1CCCN1C(=O)c1cccs1
    4%	0.2%	14%	6.3	-1.2	-2
> CCC(Sc1nc2c(sc3ccccc32)c(=O)n1CCc1ccccc1)C(=O)N(CC)CC (stereo unspecified)
    x	-0.2%	x	x	-0.4	57
> O=C(NCc1ccccn1)c1cc(-c2ccncc2)nc2ccccc12
    0%	-8.6%	-4%	x	0.4	1
> CCCc1cc(=O)[nH]c(SCC(=O)Nc2cc(C)on2)n1
    -1%	x	u	4.5	-0.9	-11
> CCOC(=O)c1ccccc1NC(=O)CSc1ncc(C(=O)OCC)c(N)n1
    -23%	-5.1%	-15%	4.3	1.2	0
> Nc1nc(SCCO)[nH]c(=O)c1NC(=O)c1ccco1
    23%	2.2%	-9%	x	-0.4	12
> CC1Oc2ccccc2N(CC(=O)NC2CC2)C1=O (stereo unspecified)
    3%	x	9%	1.8	0.5	-9
> CCNC(=O)N1CCC(n2nccc2NC(=O)CCOc2ccccc2)CC1
    -3%	2.5%	-13%	3.6	-0.4	-3
> CCc1c(C)sc(NC(=S)NC(C)C2CCCO2)c1C(=O)OC (stereo unspecified)
    x	x	7%[15.4 µM]	1.0	2.1	-10
> COc1ccc(C(=O)NC(C)CCc2ccccc2)c(O)c1 (stereo unspecified)
    -26%	x	-65%[inhibitor][15.4 µM]	1.0	-0.2	1
> O=C(CN(Cc1cccs1)C(=O)CNS(=O)(=O)c1ccc(Cl)cc1)NCc1ccco1
    -6%	0.8%	-49%[inhibitor]	5.7	1.0	4
> CC(C)Cn1c(-c2ccncc2)n[nH]c1=S
    -9%	x	9%[15.4 µM]	0.5	-0.1	-6
> O=C(CN(C(=O)c1csnn1)c1ccccc1Cl)NCCc1ccccc1
    3%	x	-9%	1.3	1.1	21
> O=c1c2nnn(Cc3ccccc3)c2ncn1-c1ccccc1
    19%	-3.0%	-4%	4.3	1.9	7
> C=CCn1c(=O)c(C(=O)Nc2ncccc2C)c(O)c2ccccc21
    x	-7.8%	-124%[inhibitor]	x	0.0	-12
> COc1ccc(CNC(=O)N2CCN(c3ccc(F)cc3)CC2)cc1Cl
    -3%	-2.8%	-13%	2.5	0.1	18
> Cc1cnc(C(=O)OCC(=O)Nc2cc(S(=O)(=O)N3CCCCC3)ccc2Cl)cn1
    -5%	x	-1%[15.4 µM]	0.8	-0.8	10
> O=C(NCCc1ccccc1)c1cc(-c2ccccc2)c(N2CCOCC2)s1
    u	u	-1%	x	1.8	28
> CC(C)OC(=O)NCCOC(=O)Nc1ccc(Cl)c(Cl)c1
    -33%	-0.2%	-42%[inhibitor]	2.1	-0.8	6
> CCN(CC)S(=O)(=O)c1ccc(N2CCOCC2)c(NC(=O)c2nn(C)c(=O)c3ccccc23)c1
    2%	1.5%	u	x	0.2	-2
> Cc1ccc(NC(=S)Nc2cccc3cnccc23)cc1C
    -12%	x	0%[15.4 µM]	-14	1.4	10
> CCCOc1ccc(CSC(=N)N)cc1C(=O)OC
    2%	-0.6%	16%[15.4 µM]	-0.7	-0.2	10

# Other entries follow:
# Each structure is followed by: gsp antag	ClpP mod	gsp ag	Menin-MLL FL inh	TRPML1 agonist	TRPML1 inh
> O=C(Nc1cccnc1Cl)c1cc([N+](=O)[O-])ccc1Cl
    0%	x	0%[15.4 µM]	3.8	1.3	-1
> COc1cc(OC)cc(-n2nc(C(=O)NCCCN3CCOCC3)c3ccccc3c2=O)c1
    2%[15.4 µM]	0.9%	u	1.5	0.4	-4
> COc1ccccc1N1CCN(c2nc3c(S(=O)(=O)c4ccc(C)c(C)c4)nnn3c3ccc(Cl)cc23)CC1
    x	-5.0%	x	x	2.1	21
> Nc1sc2c(c1C(=O)NCCc1ccccc1)CCC2
    -6%	-2.6%	-9%[15.4 µM]	u	-0.5	0
> Cc1ccc(C(=O)C(=S)N2CCOCC2)cc1
    9%	u	-16%	x	-0.4	-10
> N#Cc1cc(-c2ccccc2)nc(NN)n1
    -6%	x	-16%	-0.1	1.5	0
> Cc1ccc(Cl)cc1N1CCN(C(=O)c2ccccc2SCC(=O)N2CCCC2)CC1
    u	-1.2%	-20%	x	-0.1	5
> Cc1ccc(-n2c(CNC(=O)c3cccs3)nnc2SCC(=O)NO)cc1
    -14%	-2.1%	u	-2.6	x	x
> Cc1ccc(-c2cnc(N)n2C)cc1C
    12%	-5.5%	-38%	0.0	-0.5	12
> NC(=O)NCc1ccccc1F
    3%	x	-29%	0.2	-0.7	-4
> O=S1(=O)[C@H]2C[C@@H]3C=C[C@@]2(CN1Cc1ccc(F)cc1)O3
    3%	-1.5%&-2.5%	-11%	-0.5	0.2&-0.3	-3
> CCN1CCN(CC(=O)N2N=C(c3cccs3)CC2c2ccc(OC)c(OC)c2)C(=O)C1=O (stereo unspecified)
    -15%	x	12%[15.4 µM]	-2.4	1.7	1
> O=C(Nc1cc([N+](=O)[O-])ccc1F)c1ccc2ccccc2c1
    1%	-1.4%	-2%[15.4 µM]	-2.2	0.9	-4
> Cc1ccc(CNC(=O)CCc2nc(-c3cccs3)no2)cc1
    1%	-0.2%	21%	1.4	0.3	-12
> CC(=O)N1CCc2c(sc3c2c(=O)n(CCc2ccccc2)c(=O)n3Cc2ccccc2C)C1
    x	-3.6%	x	x	-0.1	67
> Cc1ccccc1-c1ccc(=O)n(CC(=O)Nc2ccc(N3CCOCC3)cc2)n1
    -1%	0.5%	10%	3.3	-0.1	27
> O=C(Nc1nc(-c2ccccc2)cs1)Nc1ccc(F)cc1F
    7%	0.9%	7%[15.4 µM]	1.7	-0.9	-2
> NS(=O)(=O)c1cc(C(=O)OCC(=O)NC2CC2)ccc1Cl
    -8%	-0.5%	-13%	-5.3	0.2	-17
> CCOc1ccc(NC(=O)C/C(C)=N/NC(=O)Cc2cccs2)cc1
    6%	x	-25%	x	2.0	0
> COc1cccc(NC(=O)c2ccc3c(c2)N(C)CCS3)c1
    -16%	3.6%	3%	1.3	0.2	28
> COC(=O)c1cc(OC)c(OC)cc1NC(=O)c1ccco1
    -3%	-5.5%	3%	2.1	2.4	17
> Cc1cccc(-n2ncc3c2CCCC3NC(=O)CN2CCCC2=O)c1C (stereo unspecified)
    3%	-3.7%	-42%[inhibitor]	x	-0.3	5
> COc1ccccc1NS(=O)(=O)c1cc(C(=O)NCC(C)(C)N2CCOCC2)ccc1C
    0%	x	-11%[15.4 µM]	x	0.5	-9
